VDR inhibitor = blocks the human vitamin D receptor; P11473; VDR-SRC2-3 peptide fluorescence polarization, 2 h; Potency, µM, inactives show max response, negative = inhibition, hits mostly inhibitors; 400,000 tested, 0.93% active; AID 504847; active means well fitted inhibition curve with a large enough effect; inconclusive means small, poorly fitted or top-dose-only effect, or another doubt; inactive means no such curve, though single readings can be large or run the other way; further: series mostly up to about 120 µM
Target sequence (P11473 whole entry, looked up): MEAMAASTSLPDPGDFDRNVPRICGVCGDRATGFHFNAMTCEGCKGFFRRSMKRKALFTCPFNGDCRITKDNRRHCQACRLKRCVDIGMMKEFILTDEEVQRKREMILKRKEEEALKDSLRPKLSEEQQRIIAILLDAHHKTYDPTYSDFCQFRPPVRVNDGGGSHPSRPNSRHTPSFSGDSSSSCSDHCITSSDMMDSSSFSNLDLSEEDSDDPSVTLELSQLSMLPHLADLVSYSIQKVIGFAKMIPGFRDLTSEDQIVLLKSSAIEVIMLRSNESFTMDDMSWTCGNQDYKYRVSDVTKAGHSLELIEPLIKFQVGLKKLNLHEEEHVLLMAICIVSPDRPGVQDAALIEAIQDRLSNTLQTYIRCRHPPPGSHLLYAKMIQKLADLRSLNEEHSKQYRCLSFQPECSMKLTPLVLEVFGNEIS
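Signal is fluorescence polarization, reporting how far test compounds block the interaction of VDR with the SRC2-3 coregulator peptide after a 2 h room-temperature incubation.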
An asterisk follows results filed as active; ? = inconclusive. On the % scale 0 is the no-effect control and ±100 the full control effect; potency means the concentration at half of the fitted maximal effect. A portion of the library; rates above refer to the full screens.

SMILES	VDR inhibitor
COc1ccc2[nH]c(=O)c(NC(N)=S)nc2c1	-0.4%
COn1c(C)c(C(C)=O)c2c3no[n+]([O-])c3ccc21	-4.0%
CC(C)(C)C(=O)N=C1SC2CS(=O)(=O)CC2N1c1ccc2c(c1)OCO2 (stereo not drawn)	-4.4%
COc1ccc(/C=N/NC(=O)c2cc(C)oc2C)cc1OCc1ccccc1	19.7%
O=C(c1ccc(F)cc1)N1CCC(n2nnc3ccccc32)CC1	2.7%
C/C(=N\NC(=O)c1ccc(CSc2nc(C)cc(C)n2)cc1)C1CCCCC1	-5.4%
O=C(NCc1ccccc1)C1CC(=O)N(C2CCCCCC2)C1 (stereo not drawn)	-6.3%
COC(=O)Cn1cnc2c(C#N)c3n(c2c1=O)CCCC3	3.4%
CCn1c(SCC(=O)N2CCCCC2)nc2c(c1=O)SCC2	1.4%
O=C(COC(=O)COc1cccc(F)c1)NCCC1=CCCCC1	1.1%
C=CCOc1ccc(/C(O)=C2\C(=O)C(=O)N(CCCOC)C2c2ccncc2)cc1 (stereo not drawn)	9.0%
CSc1nnc(-c2cc(C)on2)n1-c1ccccc1	-16.6%
COCCCN1C(=O)c2ccccc2C1C(=O)NC1CCCCCC1 (stereo not drawn)	7.6%
Cn1c(SCC(=O)Nc2ccccc2Oc2ccccc2)nnc1C1CC1	4.1%
Cc1cccc(NC(=O)CN2CCCCCC2)c1	19.1%
Cc1nn(C)c(C(=O)N2CCc3ccccc32)c1Br	9.2%
CC(=O)Nc1ccc(S(=O)(=O)NCCC(=O)OCC(=O)N2CCN(C(=O)c3ccco3)CC2)cc1	-29.1%
O=C(Nc1ccccc1O)c1ccc(NS(=O)(=O)c2cccc3cccnc23)cc1	13.3%
CNc1nc(Nc2ccc(C)c(Cl)c2)nc(N)c1[N+](=O)[O-]	7.3%
Cc1ccc(C(=O)OC2=CC(=O)CC(C)(C)C2)cc1	-7.2%
CCCCC(=O)NCc1ccc(Cl)cc1	-17.3%
CCOc1ccc(N(C(C)C(=O)NCCSc2ccc(Cl)cc2)S(C)(=O)=O)cc1 (stereo not drawn)	-2.2%
O=C(NCCCN1CCCCC1)c1ccc2c(c1)ncn2C1CCCC1	-2.8%
CN(CC(=O)Nc1ccc(Cl)cc1)C(=O)CNC(=O)Cc1cccc2ccccc12	-0.1%
CCOC(=O)c1c(-c2ccc(C)o2)csc1NC(=O)COC(=O)c1cccs1	?
CCCSc1ncc(Cl)c(C(=O)Nc2c(C(=O)Nc3ccc(C)cc3)oc3ccccc23)n1	4.2%
CC(=O)NNC(=O)CCn1c2c(c3ccccc31)CCCC2	1.5%
CC1CC(C)CN(C(=O)CSc2nnc(N)s2)C1 (stereo not drawn)	-4.8%
Cn1c(Cc2csc(N)n2)nnc1SCC(=O)NCc1ccccc1	7.5%
COc1ccc(C2NC(=O)C(C#N)=C(S)N2c2ccc(C)cc2)cc1OC (stereo not drawn)	31.6µM*
Cc1cc(S(=O)(=O)NCC(c2ccccc2)c2ccccc2)ccc1-n1cnnn1	6.3%
COCCNC(=O)c1nn2c(C(F)(F)F)cc(-c3ccccc3)nc2c1Cl	-1.7%
COc1ccc(Oc2nccc(-c3ccc(Cl)cc3)n2)cc1	0.5%
COc1cccc(C2c3[nH]c4ccccc4c3CCN2C(=O)Cn2cncn2)c1OC (stereo not drawn)	-10.4%
COc1ccc(NC(=O)c2cnc3n(c2=O)CCS3)cc1OC	1.1%
CCC1CCc2sc(C(=O)O)cc2C1 (stereo not drawn)	-10.5%
Cc1sc2ncn(CC(=O)Nc3ccc(C(C)C)cc3)c(=O)c2c1S(=O)(=O)N1CCN(c2ncccn2)CC1	-6.3%
Cc1cc(C)c2c(N)c(C(=O)C(C)(C)C)sc2n1	2.8%
O=C(CSc1ncnc2scc(-c3ccccc3)c12)NC1CCS(=O)(=O)C1 (stereo not drawn)	4.3%
COCCN(CCOC)C(=O)c1ccc(NS(=O)(=O)c2ccc3[nH]c(=O)[nH]c3c2)cc1	2.4%
C[C@@]12C(=O)N(c3ccc(C(F)(F)F)cc3)C(=O)N1[C@@H]1c3ccccc3OC[C@@H]1[C@H]2c1ccccc1	2.3%
O=C(CCc1n[nH]c(=O)[nH]c1=O)Nc1cccc([N+](=O)[O-])c1	-4.2%
CCOC(=O)Cc1csc(SCC(=O)Nc2sc3c(c2C(N)=O)CCC3)n1	7.7%
Cc1nn(Cc2ccc(Cl)cc2)c(Cl)c1/C=N/NC(=O)CNc1ccccc1F	-5.0%
COC(=O)C1=C(C)N(Cc2ccco2)C(=O)N[C@@H]1c1ccc(Br)cc1	8.2%

Taken from above.
Entry for `COc1ccc(Oc2nccc(-c3ccc(Cl)cc3)n2)cc1` in VDR inhibitor: 0.5%
Entry for `Cc1cc(S(=O)(=O)NCC(c2ccccc2)c2ccccc2)ccc1-n1cnnn1` in VDR inhibitor: 6.3%

Later entries
SMILES	VDR inhibitor
Cc1oc(-c2cccc(Cl)c2)nc1CN1CCC(C(=O)NCCCN2CCN(c3ccc(F)cc3)CC2)CC1	-19.0%
CN(CC(=O)Nc1ccccc1Cl)C(=O)COC(=O)CCN1C(=O)C2CC=CCC2C1=O (stereo not drawn)	-11.3%
COC(=O)C1=CN(C2CCCCC2)C=C(C(=O)OC)C1c1ccc2c(c1)OCO2	-1.3%
CC(C)CCNC(=O)c1ccc(NC(=O)N2CCCCc3ccccc32)cc1	11.8%
COC(=O)CCC(=O)NNC(=O)Cc1ccccc1	-23.9%
O=C(Nc1ccc(S(=O)(=O)N2CCOCC2)cc1)c1c(F)cccc1F	-14.3%
COc1ccc(/C=C/CN2CCCC(CO)(Cc3cccc(Cl)c3)C2)cc1 (stereo not drawn)	13.3%
Cc1csc2nc(CSc3nncn3-c3ccccc3)c(Br)n12	-4.2%
O=C(O)CCCCNS(=O)(=O)c1ccc(Cl)c(C(F)(F)F)c1	-8.4%
Cc1noc(C)c1NC(=O)N(C)C[C@H]1Oc2c(NC(=O)c3ccncc3)cccc2C(=O)N([C@H](C)CO)C[C@@H]1C	2.6%
COc1ccc(CN2CCc3ccccc3C2)c(OC)c1OC	3.5%
O=C(NN1C(=O)C2C3C=CC(O3)C2C1=O)c1ccccc1 (stereo not drawn)	-12.2%
CC(=O)N1c2ccc(S(=O)(=O)NCCC(=O)NCc3ccc(N(C)C)cc3)cc2CC1C (stereo not drawn)	?
O=C(CN1CCN(C(=O)c2ccc(OCc3cn4ccccc4n3)cc2)CC1)Nc1cccc(F)c1	15.5%
COc1cccc(NC(=S)N(Cc2cccc(Br)c2)CC2CCC(C(=O)O)CC2)c1 (stereo not drawn)	12.7%
NC(=O)CC(NC(=O)c1ccc(Br)cc1)c1ccc(N2CCN(c3ccc(F)cc3)CC2)c([N+](=O)[O-])c1 (stereo not drawn)	2.0%
C=CCn1c(SCC(=O)N(CCOC)c2c(N)n(CCCC)c(=O)[nH]c2=O)nnc1-c1ccc(Cl)cc1	-17.0%
CSCCC(N=CC1=C(O)CC(C)(C)CC1=O)C(=O)O (stereo not drawn)	0.6%
Cc1nc(N2CCCC2)ncc1C(=O)Nc1ccc(OC(F)(F)F)cc1	13.5%
COc1cccc2c(Cl)c(CCCl)c(C)nc12	18.9%
Cc1ccc(-c2nc3ccccn3c2Nc2ccc(F)cc2)o1	-13.1%
CCC(=O)c1ccc(OCc2ccc(C(=O)c3ccccc3)cc2)cc1	-20.3%
c1ccc(NC2=Nc3cccc4cccc2c34)cc1	-9.6%
Cc1ccc(OC(=O)c2cc(-c3ccc4c(c3)OCCO4)on2)cc1C	8.7%
C/C(CCN1CCc2nc(-c3ccccc3)c(-c3ccccc3)cc2C1)=N\O[C@@H](C)c1cc(-c2c(C)cc(C)cc2C)no1	-0.3%
CC12CCC(=O)N1C(C(=O)Nc1nc(-c3ccccc3Cl)cs1)CS2 (stereo not drawn)	9.6%
CC(=O)c1c(N2CCOCC2)nc(=O)n(-c2ccccc2)c1C	-10.3%
COc1cc(/C=C(/NC(=O)c2ccccc2)C(=O)Nc2cccc(O)c2)c([N+](=O)[O-])cc1OC	-5.9%
COc1ccc(N(CC(=O)NCc2ccncc2)S(=O)(=O)c2ccccc2[N+](=O)[O-])c(OC)c1	0.8%
O=C(O)CNC(=O)CC1S/C(=N/N=C2\CSC(=O)N2)NC1=O (stereo not drawn)	5.5%

VDR inhibitor: hit marks shown above
SMILES	VDR inhibitor
COc1ccc(C2NC(=O)C(C#N)=C(S)N2c2ccc(C)cc2)cc1OC (stereo not drawn)	31.6µM*

Remaining list, next part:
SMILES	VDR inhibitor
COc1ccc(C(CNC(=O)c2oc3c(Cl)cccc3c2C)N2CCCC2)cc1 (stereo not drawn)	-4.0%
COc1ccc(/C=C2/SC(=S)N(CCCC(=O)Nc3ccc(O)cc3)C2=O)cc1	-5.8%
O=C(COC(=O)c1cc(Cl)nc(Cl)c1)NC1CCCCCC1	11.2%
O=C(CSc1nnc(CNC(=O)c2ccc(F)cc2)o1)NCc1ccc2c(c1)OCO2	-9.9%
CC1(C)CC(=O)c2cc(-c3nc(-c4ccc(Cl)cc4)cs3)c(=O)n(-c3ccc(F)cc3)c2C1	-11.3%
Cc1cc(C)c2ccc(=S)[nH]c2n1	-17.5%
O=C(NCc1cccnc1)C1CCC(c2ccc(Cl)cc2)CC1 (stereo not drawn)	-7.6%
COc1ccc(/C=N/NC(=O)c2ccc(-n3cnnn3)cc2)cc1	-1.5%
Cc1ccc(OCCC(=O)OCC(=O)N2CCN(S(=O)(=O)c3ccc(C)cc3C)CC2)cc1	-4.8%
COc1ccc(/C=C/C(=O)c2cccs2)cc1OC	?
Cc1ccc(C)c(OCCC(=O)N2CCN(S(=O)(=O)c3cc(C)ccc3C)CC2)c1	-7.8%
O=C(N/N=C/c1cc([N+](=O)[O-])ccc1O)c1c[nH]c2ccccc12	-11.0%
Nn1c(CSc2ccccn2)nc2ccccc2c1=O	-5.9%
CN(C)S(=O)(=O)c1cccc(NC(=O)COc2ccc3ccccc3c2)c1	-13.6%
Cc1cc(NC(=O)C(C)C)ncc1NC(=O)c1ccccn1	-17.0%

Arranged by value in VDR inhibitor (low to high): seven of the compounds above.
SMILES	VDR inhibitor
Cc1cc(NC(=O)C(C)C)ncc1NC(=O)c1ccccn1	-17.0%
CC1(C)CC(=O)c2cc(-c3nc(-c4ccc(Cl)cc4)cs3)c(=O)n(-c3ccc(F)cc3)c2C1	-11.3%
O=C(CSc1nnc(CNC(=O)c2ccc(F)cc2)o1)NCc1ccc2c(c1)OCO2	-9.9%
O=C(NCc1cccnc1)C1CCC(c2ccc(Cl)cc2)CC1 (stereo not drawn)	-7.6%
Nn1c(CSc2ccccn2)nc2ccccc2c1=O	-5.9%
Cc1ccc(OCCC(=O)OCC(=O)N2CCN(S(=O)(=O)c3ccc(C)cc3C)CC2)cc1	-4.8%
O=C(COC(=O)c1cc(Cl)nc(Cl)c1)NC1CCCCCC1	11.2%

Next entries:
SMILES	VDR inhibitor
CN1C(=O)C2(NC(=O)c3ccccc3N2C)c2ccccc21 (stereo not drawn)	1.3%
Cc1noc(/C=C/c2cccs2)c1S(=O)(=O)N1CCC(C(=O)Nc2ccc(F)c(Cl)c2)CC1	-16.7%
COc1ccc(NC(=O)c2ccc3nc(CCc4ccccc4)oc3c2)cc1	5.4%
Cc1ccc(NC(=O)OCCNC(=O)OC(C)C)cc1	-3.0%
COc1ccc(N2C(=O)c3ccc(NC(C)=O)cc3C2=O)cc1	5.2%
CCCC(=O)Nc1ccc2c(c1)nc(CN1CCN(C(C)=O)CC1)n2C	13.9%
C/C(=N\NC(=O)c1ccn(C)n1)c1ccc(NC(=O)C2CCCC2)cc1	-3.0%
CCS(=O)(=O)N1CC(=O)N(c2ccc(C)c(C)c2)C(C)(C(=O)NC2CCCCCC2)C1 (stereo not drawn)	8.1%
Cc1ccc(-n2c(-c3ccccc3)n[nH]c2=S)c(C)c1	-8.2%
Nc1ncnc2c1ncn2[C@@H]1O[C@H](CNC(=O)[C@@H](N)Cc2ccccc2)[C@@H](O)[C@H]1O	2.1%
CC(C)C[C@H](NC(=O)[C@H](Cc1ccccc1)C[C@@H](O)[C@H](Cc1ccccc1)NC(=O)OC(C)(C)C)C(=O)N[C@@H](Cc1ccccc1)C(N)=O	9.2%
COc1ccc(-n2nc3cc(C)c(NC(=O)c4cccnc4)cc3n2)cc1	9.1%
Cc1ccc(NC(=O)C(C)Sc2nc(=O)cc(N)n2-c2cccc(C)c2)cc1 (stereo not drawn)	-11.4%
COc1ccc(-n2c(Cc3cc(=O)[nH]c(=O)[nH]3)nnc2SCC(=O)N2CCC(C)CC2)cc1	-20.2%
COc1ccc(-c2noc(CN3CCN(c4cccc(Cl)c4)CC3)n2)cc1	-29.0%
O=S1(=O)CCC(NC(=S)N2CCCCC2)C1 (stereo not drawn)	?
Cc1ccccc1C(=O)NNC(=O)C12CC3CC(CC(C3)C1)C2	-13.4%
FC(F)Sc1ccc(N=C2NN=C(c3ccc4c(c3)OCCO4)CS2)cc1	-18.4%
O=C(NCc1ccc2c(c1)OCO2)C1CC(=O)N(CCc2ccccc2)C1 (stereo not drawn)	-19.2%
C=CCn1c(CNc2ccccc2)nnc1SCC(=O)N/N=C/c1ccc(O)cc1O	-22.5%
O=C(OCC(=O)c1cccs1)c1ccc(NC(=O)c2ccco2)cc1	-12.2%
CC1(C)CC2(C)Nc3ccccc3N2C(=S)N1 (stereo not drawn)	-4.0%
COc1ccc(OC)c(NC(=O)CS(=O)(=O)c2ccccc2)c1	-7.1%
O=C(CCN1C(=O)c2ccccc2C1=O)Nc1cccnc1	-1.4%
CCN(CC)c1ccc(N2C(=NC(=O)C3CCCO3)SC3CS(=O)(=O)CC32)cc1 (stereo not drawn)	12.6%
CCOC(=O)c1c(NC(=O)C2Cc3ccccc3C(=O)O2)sc2c1CCCC2 (stereo not drawn)	-9.6%
O=C(Cn1c(=O)n(Cc2cccs2)c(=O)c2cccnc21)Nc1ccc(F)cc1	5.1%
Cc1cc(C)cc(NS(=O)(=O)c2csc(C(N)=O)c2)c1	-3.5%
CCOC(=O)C1CCCN(C(=O)c2cn(C)c(=O)c3cc(OC)c(OC)cc23)C1 (stereo not drawn)	-3.7%
COc1cccc2cc(C(=O)Nc3ccccc3C)/c(=N/NS(=O)(=O)c3ccccc3)oc12	-2.2%
O=C1c2cccnc2Nc2ccccc2N1CCCF	13.4%

Screening results from PubChem BioAssay.
